Source: PubChem BioAssay
T cruzi inh = T. cruzi replication inhibition; 1.4% of 300,000 active; inhibition, % (test concentration not listed); T. cruzi beta-gal in NIH3T3, luminescence, 90 h;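 active = mean inhibition across valid replicates above about 55%, limit read from the data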;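 also: signal also drops with host cell toxicity which is not excluded here; 0% = plate median of DMSO wells and 100% = zero luminescence signal; higher percent means less beta-gal luminescence so fewer parasites; stock transfer was 50 nL into about 50 µL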
Beta cell apopt = beta cell apoptosis inhibition; INS-1E cytokine-induced death, ATP luminescence, 48 h; percent of positive-control rescue, neutral wells zero; protection from apoptosis, % (test concentration not listed); 0.8% of 300,000 active;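 active = all replicates at 75% or more, or half of them and the mean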;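 also: 0% = cytokine-treated negative control wells and 100% = positive control rescue; higher means more ATP so stronger rescue from cytokine killing; wells of about 40 µL received 100 nL stock; the first replicate is given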
MLL AF4-AF9 inh = inhibitors of human MLL-AF4/AF9 interaction. inhibition, % at 10 µM. 0.47% of 350,000 active. AID 651704. P42568. AlphaScreen, biotin-AF4 peptide binding to FLAG-AF9;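 active = every replicate reaching a set inhibition limit, whatever the replicate mean, cut at about 25% in these data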;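 also: 0% = plate neutral control median and 100% = total signal loss; the record names both 10 and 1 µM as test concentration; the first replicate is given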
Target sequence (P42568 whole entry, looked up): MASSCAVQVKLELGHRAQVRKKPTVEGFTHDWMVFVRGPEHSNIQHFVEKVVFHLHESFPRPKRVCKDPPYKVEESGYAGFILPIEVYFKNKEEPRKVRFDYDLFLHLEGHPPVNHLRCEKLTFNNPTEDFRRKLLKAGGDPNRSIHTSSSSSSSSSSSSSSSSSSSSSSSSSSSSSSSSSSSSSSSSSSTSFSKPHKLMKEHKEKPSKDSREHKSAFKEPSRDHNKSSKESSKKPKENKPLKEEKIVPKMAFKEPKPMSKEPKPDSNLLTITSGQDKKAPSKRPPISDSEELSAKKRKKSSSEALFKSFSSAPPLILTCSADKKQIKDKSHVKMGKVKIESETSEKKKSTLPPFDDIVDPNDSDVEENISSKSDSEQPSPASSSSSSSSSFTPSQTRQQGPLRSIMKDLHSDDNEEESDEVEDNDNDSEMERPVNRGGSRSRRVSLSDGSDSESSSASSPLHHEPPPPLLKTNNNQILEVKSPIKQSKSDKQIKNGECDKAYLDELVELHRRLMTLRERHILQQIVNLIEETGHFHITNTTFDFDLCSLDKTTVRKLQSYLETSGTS
Ecoli growth = inhibitors of Escherichia coli growth | OD600, 23 h; active compounds read low | OD600 absorbance (test concentration not listed) | 0.21% of 330,000 active;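 active = OD600 absorbance below the run mean of sample wells minus 3.6 SD, in any replicate, cut at about 0.56 in these data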;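 also: stock transfer was 300 nL into about 60 µL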
rRNA inh HTS = inhibitors of bacterial rRNA selective over humanized ribosomes. AID 720706. 1.6% of 350,000 active. E. coli WT GFP vs humanized-ribosome RFP mutants, fluorescence, 24 h; active compounds read low; DMSO median 0, no signal -100. GFP signal change (wild-type ribosome), % (test concentration not listed);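 active = significant combined selectivity score with lowered wild-type GFP, culture density cut under 30%, mutant RFP and density less affected; inactive = any of these conditions unmet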; also: one replicate is shown; some compounds called inactive have numbers as strong as hits
FGF22 binding = FGF22 (human) thermal shift binding. Q9HCT0. 1.5% of 340,000 active. calls only at 9.99 µM. recombinant FGF22 thermal shift, SYPRO orange fluorescence; percent of sucrose octasulfate shift, DMSO zero;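 active = melting point raised past a set limit in the mean and every replicate; three in four hits are not shown here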
Target sequence (Q9HCT0 whole entry, looked up): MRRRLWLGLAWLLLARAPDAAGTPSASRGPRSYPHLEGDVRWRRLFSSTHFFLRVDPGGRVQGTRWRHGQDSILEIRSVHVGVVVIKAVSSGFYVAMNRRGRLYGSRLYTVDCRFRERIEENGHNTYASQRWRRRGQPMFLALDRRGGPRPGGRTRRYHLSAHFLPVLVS
A1 inh = inhibitors of the anti-apoptotic protein A1, read as caspase activation. MEF A1-2A-BIM cells, Caspase-Glo 3/7 luminescence, 3 h; percent of clofoctol response, vehicle zero. caspase activation, % (concentration not given with the values). 0.066% of 330,000 active. AID 2462;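 active = over half of replicate activation scores above 10%, or exactly half above 10 with the replicate mean above 10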;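 also: wells of about 30 µL received 50 nL stock; many hits fall short of the cut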
UCH37 DUB inh = human UCH37 deubiquitinating enzyme inhibition; Q9Y5K5; purified proteasome/UCH37, Ub-AMC cleavage fluorescence; inhibition, % (concentration not given with the values); 0.33% of 330,000 active; AID 588478;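 active = mean of two replicates above 20%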;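 also: 0% = compound-free wells with enzyme and 100% = wells lacking proteasome; stock transfer was 100 nL into about 20 µL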
Target sequence (Q9Y5K5 whole entry, looked up): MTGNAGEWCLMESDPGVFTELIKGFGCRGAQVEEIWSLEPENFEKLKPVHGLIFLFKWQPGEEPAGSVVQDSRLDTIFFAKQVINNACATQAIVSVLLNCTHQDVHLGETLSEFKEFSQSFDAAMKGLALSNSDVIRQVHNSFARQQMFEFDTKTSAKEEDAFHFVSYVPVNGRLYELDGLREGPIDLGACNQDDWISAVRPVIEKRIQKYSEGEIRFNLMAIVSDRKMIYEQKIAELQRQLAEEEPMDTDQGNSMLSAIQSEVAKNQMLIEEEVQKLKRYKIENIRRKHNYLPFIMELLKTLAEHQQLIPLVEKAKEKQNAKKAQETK
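Material: Human UCH37 enzyme supplied as purified proteasome complex | Schedule: 30 min compound-proteasome preincubation then 25 min substrate reaction, room temperature | Detection: AMC fluorescence from Ub-AMC cleavage, excitation 355 nm, emission 460 nm | Benchmarks: Wells without proteasome as full block, compound-free enzyme plus substrate as uninhibited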
rRNA inh HTS OD600 = recorded beside rRNA inh HTS, whose call it bears; OD600 change, %; measured here: OD600 growth;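 optical density of the mix in the first replicate; 0 = DMSO median and -100 = no signal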
rRNA inh HTS RFP = also measured in rRNA inh HTS; calls as there; RFP signal change, %; measured here: RFP humanized mutant strains;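 first replicate; 0 = DMSO median and -100 = no signal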
* = called active by the depositor; i = inactive; . = no result given; + = active, no number; & = joins results of further samples. These rows are one share of the data; the hit share may differ from the screen's.

SMILES	T cruzi inh	Beta cell apopt	MLL AF4-AF9 inh	Ecoli growth	rRNA inh HTS	rRNA inh HTS OD600	rRNA inh HTS RFP	FGF22 binding	A1 inh	UCH37 DUB inh
Cc1nc(SCc2ccc(O)c([N+](=O)[O-])c2)n[nH]1	-15.5	-2.3	1.7	.	0.4	1.4	-1.6	i	-1.7	.
COc1ccccc1NC(=O)C(=O)c1cn(CC(=O)N2CCOCC2)c2ccccc12	-23.3	0.7	-2.3	0.714	6.8	17.0	2.3	i	-0.5	2.6
CN(C)NC(=S)Nc1ccc2nc(-c3ccccn3)c(-c3ccccn3)nc2c1	3.7	-1.6	.	0.669	.	.	.	.	-0.2	-0.8
CCOC(=O)c1c(CN2CCOCC2)n(-c2ccccc2)c2cc(Br)c(O)c(CN(C)C)c12	17.2	-5.0	.	0.75	.	.	.	.	1.1	0.5
O=C(c1ccc(Cl)cc1)N1CCN(c2ccc([N+](=O)[O-])c(NCc3cccnc3)c2)CC1	23.6	6.6	.	0.724	.	.	.	.	0.2	10.9
CC(C)NC1=C(Cl)C(=O)c2ccccc2C1=O	-12.0	69.5	.	0.638	.	.	.	.	-2.0	10.4
O=C1CCc2cc(S(=O)(=O)NC(C(=O)N3CCN(c4ccccn4)CC3)c3ccccc3)ccc2N1 (centres undefined)	4.8	-5.7	0.1	0.645	-6.0	-9.0	-1.7	i	-0.3	0.0
NC(=O)CSc1ncc(-c2ccccc2)[nH]1	-11.8	-2.6	-2.4	0.685	9.2	-3.0	-4.9	i	-1.0	3.2
CCCCN(CCCC)S(=O)(=O)c1c(C)[nH]c(=O)[nH]c1=O	0.7	-4.3	-1.6	0.696	4.5	0.3	3.2	i	0.1	-3.8
CN(C(=O)CN1CCN(c2cnn(-c3ccccc3)c(=O)c2Cl)CC1)C1CCS(=O)(=O)C1 (centres undefined)	.	0.5	0.3	0.716	8.3	6.6	0.6	i	-0.3	3.6
CCCNC(=O)C1=C(C)C(=O)OC12CCC(C)CC2 (centres undefined)	-2.8	0.8	-2.1	0.736	-2.0	5.1	-3.8	i	0.3	2.0
CC1CCCC(C)N1CCCNC(=O)CCn1c(=O)c2cccn2c2cccnc21 (centres undefined)	1.5	-2.0	-0.4	0.71	6.8	13.9	-0.9	i	-1.2	1.2
COc1ccc(CCNC(=O)c2ccc3nc(N4CCCCC4)sc3c2)cc1OC	7.5	3.1	0.8	0.753	-6.8	-5.4	-1.3	i	1.2	4.5
CCOC(=O)C1=CN(Cc2cccc(-c3ccc(Cl)nc3)c2)S(=O)(=O)N(C)C1C (centres undefined)	.	.	-0.8	0.708	-7.0	-13.9	6.9	i	.	0.7
Cc1noc(C)c1NC(=O)N(C)C[C@H]1Oc2c(NC(=O)Nc3ccc(C(F)(F)F)cc3)cccc2C(=O)N([C@H](C)CO)C[C@@H]1C	.	-13.6	-2.3	0.686	1.9	-1.7	-1.8	i	-1.2	1.1
CCC(=O)N1CCc2cc(S(=O)(=O)N3CCCC3)ccc21	-4.0	-2.5	4.2	0.704	4.0	9.3	1.4	i	-1.0	2.5
Cc1ccc(NC(=O)CSc2nc3ccccc3nc2N2CCOCC2)cc1	6.7	0.1	16.6	0.714	-2.1	-14.3	-13.0	i	0.1	-1.7
Cc1ccc(-c2n[nH]c3c2CCC3)cc1	4.9	-5.9	.	0.645	.	.	.	.	-0.6	3.5
CC(C)N1CN(c2ccccc2)C(=S)N(c2ccccc2)C1	-6.0	-1.9	2.1	0.651	8.8	12.2	0.1	i	0.8	5.6
O=C(O)c1nn(-c2ccccc2)nc1-c1nn(-c2ccccc2)nc1C(=O)O	-8.6	.	.	0.682	.	.	.	.	0.3	5.6
CSc1ccccc1NC(=O)CN(Cc1ccccc1)S(C)(=O)=O	13.4	-9.3	.	0.724	.	.	.	.	0.2	0.5
CCOC(=O)C1CCCN(C(=O)c2sc3nc(-c4ccccc4)cn3c2C)C1 (centres undefined)	11.7	-6.1	.	0.693	-10.2	-8.1	3.3	.	0.0	-1.1
C/C(=N\NC(=O)c1ccco1)c1cc(Cl)sc1Cl	-9.2	0.2	1.8	.	-4.9	6.4	-2.8	i	-0.1	.
O=C(NC(=S)Nc1ccccc1N1CCCCC1)c1ccccc1	-16.7	23.3	1.2	0.742	10.9	16.7	2.3	i	1.5	-1.1
Cc1c([N+](=O)[O-])cc(S(=O)(=O)Nc2ccncc2)cc1[N+](=O)[O-]	-10.0	-0.1	-0.2	0.653	11.7	0.4	-5.9	i	0.2	1.6

The list goes on; the last 6 above are carried over.
SMILES	T cruzi inh	Beta cell apopt	MLL AF4-AF9 inh	Ecoli growth	rRNA inh HTS	rRNA inh HTS OD600	rRNA inh HTS RFP	FGF22 binding	A1 inh	UCH37 DUB inh
O=C(O)c1nn(-c2ccccc2)nc1-c1nn(-c2ccccc2)nc1C(=O)O	-8.6	.	.	0.682	.	.	.	.	0.3	5.6
CSc1ccccc1NC(=O)CN(Cc1ccccc1)S(C)(=O)=O	13.4	-9.3	.	0.724	.	.	.	.	0.2	0.5
CCOC(=O)C1CCCN(C(=O)c2sc3nc(-c4ccccc4)cn3c2C)C1 (centres undefined)	11.7	-6.1	.	0.693	-10.2	-8.1	3.3	.	0.0	-1.1
C/C(=N\NC(=O)c1ccco1)c1cc(Cl)sc1Cl	-9.2	0.2	1.8	.	-4.9	6.4	-2.8	i	-0.1	.
O=C(NC(=S)Nc1ccccc1N1CCCCC1)c1ccccc1	-16.7	23.3	1.2	0.742	10.9	16.7	2.3	i	1.5	-1.1
Cc1c([N+](=O)[O-])cc(S(=O)(=O)Nc2ccncc2)cc1[N+](=O)[O-]	-10.0	-0.1	-0.2	0.653	11.7	0.4	-5.9	i	0.2	1.6
CCN(CC)C(=O)c1nn(Cc2ccccc2)c(=O)c2ccccc12	10.1	-2.4	-0.8	0.693	3.7	8.7	-3.5	i	-0.7	2.0
COCCNC(=S)NCCc1ccc(Cl)cc1Cl	-8.9	-12.5	0.9	0.641	-38.4	-60.1	9.6	i	1.0	-1.5
COc1ccc(-c2oc3ccc(-c4cc(OC)c(OC)c(OC)c4)cc3c2-c2ccc(OC)cc2)cc1	42.6	1.7	-3.8	0.672	10.2	9.5	-2.9	i	0.1	-43.5
Cc1ccc(CNC(=O)COC(=O)CCCOc2ccc(Cl)cc2Cl)cc1	-12.7	-0.7	-0.5	0.695	-0.7	1.1	-1.7	i	1.8	0.9
C=CCSC1=C(C#N)C(c2ccccc2OC)CC(=O)N1 (centres undefined)	-27.0	0.8	.	0.778	.	.	.	.	0.3	1.1
CC1C2(C)OC(=N)C(C#N)(C(C)O2)C1(C#N)C#N (centres undefined)	-21.6	-0.8	.	0.688	.	.	.	.	0.3	-86.5
COc1ccc(C(=O)NN2C(=S)N(c3ccc(OC)cc3)C(=O)C2CC(N)=O)cc1 (centres undefined)	-5.9	-5.7	.	0.713	11.7	2.1	-1.6	i	0.8	5.7
CCOC(=O)NC(CC(=O)O)c1ccc(OCC)cc1 (centres undefined)	-7.4	-0.4	.	0.675	.	.	.	.	0.7	0.9
COc1ccc(-c2oc3cccnc3c2C#CC2(O)CCCCC2)cc1	17.5	2.9	-1.6	.	-21.8	-28.8	32.3	i	1.1	-58.0
CC1(C)CC(=O)c2sc(NS(C)(=O)=O)nc2C1	-8.1	-1.5	.	0.65	.	.	.	.	-0.7	14.0
O=S(=O)(Nc1ccc(O)c2ccccc12)c1ccc(F)cc1	-2.4	68.5	-17.0	0.693	-19.1	-29.8	-18.6	i	1.3	3.0
O=C(CCCOc1ccc(Br)cc1)NCCc1ccc(OC(F)F)cc1	6.4	-1.9	-7.8	0.649	-6.9	-13.4	1.6	i	0.3	1.2
CC1CN(C(=O)C(C)N2CCN(c3ccccc3Cl)CC2)CC(C)O1 (centres undefined)	-15.3	-0.9	-2.2	0.677	11.7	5.0	1.3	+	1.6	0.7
CN(CC(=O)Nc1ccc2c(c1)OCO2)S(=O)(=O)c1ccc2c(c1)CCC(=O)N2	5.5	2.0	2.0	0.644	5.1	14.0	3.7	i	0.2	0.5
O=C(CCSc1ccccc1)N1CCN(c2ccccc2F)CC1	22.0	.	-1.4	0.696	-28.2	-62.8	1.3	i	-0.4	1.1
CC(C)NC(=O)N(C)C[C@@H]1Oc2c(NC(=O)C3CCOCC3)cccc2C(=O)N([C@@H](C)CO)C[C@H]1C	.	-2.7	-3.1&-2.3	0.73	1.6&12.8	13.9&14.7	1.3&-0.5	i	0.1	2.9
CC(NC(=O)Cn1cccc1)c1ccccc1 (centres undefined)	-17.4	-5.5	0.3	0.666	3.8	1.1	-2.1	i	0.8	-0.1
O=C1CN(C(=O)CSc2nc3ccccc3c(=O)n2CCCN2CCOCC2)c2ccccc2N1	11.4	0.3	7.2	0.703	-0.5	-4.2	-4.5	i	-0.7	-1.1
N#Cc1ccc(S(=O)(=O)NC2CC2)cc1	-17.0	-2.1	-2.4	0.671	-4.9	-0.7	-3.8	i	0.0	6.4
CC1(C)CC(=O)C(C(c2cccc([N+](=O)[O-])c2)C2C(=O)CC(C)(C)CC2=O)C(=O)C1	7.7	-10.2	5.9	0.738	-18.1	-12.2	-1.4	i	0.8	2.5
COc1ccc(NC(=O)CSCC(=O)Nc2nnc(CC(C)C)s2)cc1	5.3	-3.0	0.1	0.729	-1.2	-3.7	-1.7	i	-0.2	-1.3
COC(=O)CCC(=O)Nc1ccc(NC(C)=O)cc1	2.6	2.3	.	0.683	.	.	.	.	-0.5	0.8
O=C(NCc1ccco1)C1CCC(CNS(=O)(=O)c2cccc3cccnc23)CC1 (centres undefined)	2.9	-6.0	-0.5	0.723	3.3	2.3	2.4	i	0.5	1.5
CN(NC(=O)CN1C(=O)c2ccccc2C1=O)C1=NS(=O)(=O)c2ccccc21	-1.3	8.8	-1.7	0.682	6.3	2.4	-0.2	i	-0.3	5.1
N#C/C(C(=O)N1CCOCC1)=C1\Nc2ccccc2S1	0.7	3.6	.	0.663	.	.	.	.	.	11.7
(further entries)
SMILES	T cruzi inh	Beta cell apopt	MLL AF4-AF9 inh	Ecoli growth	rRNA inh HTS	rRNA inh HTS OD600	rRNA inh HTS RFP	FGF22 binding	A1 inh	UCH37 DUB inh
COc1ccc(N(CC(=O)Nc2cccnc2)S(=O)(=O)c2ccccc2)cc1Cl	4.3	.	1.6	0.659	-6.0	-9.6	6.3	i	0.7	2.8
COc1ccc(CCNC(=O)c2noc3c2CCCC3)cc1OC	-17.5	-2.4	.	0.711	.	.	.	.	-0.1	-2.7
CN(C(=O)c1ccccc1C(=O)OCC(=O)NC(=O)NC(C)(C)C)C1CCCCC1	1.2	-3.0	-0.4	0.724	-0.3	6.0	-0.2	i	0.0	5.1
C=CCC1NS(=O)(=O)OC2CCCC12 (centres undefined)	-37.5	-7.1	-16.5	0.68	3.2	5.5	0.6	i	0.3	2.2
CCn1c(C)nc2cc(C(=O)N/N=C/c3ccc(OC)cc3)ccc21	2.2	-0.2	0.7	.	-4.1	-0.1	3.3	i	0.0	.
Cc1cnc(CN(C)C(=O)c2ccc3oc(Cc4ccccc4)nc3c2)[nH]1	-13.5	2.3	0.6	0.723	-0.6	1.8	2.7	i	1.6	5.4
